Assay outcomes (PubChem BioAssay)
RN4220 kill = growth inhibition of S. aureus RN4220, primary screen, OD600; hit rate 0.33% among 330,000; 16 h; inhibition, % (no concentration beside the values);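 active means z-score of -3 or lower and OD600 up to 0.18 on both plates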;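 further: plate controls were untreated cells for no effect and reference antibiotic for full effect; stock transfer was 100 nL into about 80 µL; one replicate is shown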
BJeLR lethal = MLPCN primary cell-based screen for lethality selective to Ras in HRASV12 cells; hit rate 0.17% among 300,000; inhibition, % (test concentration not listed); BJeLR (HRASV12) viability, CellTiter-Glo ATP luminescence, 48 h; reference of the scale not given here;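 active means replicate mean above 50%; inconclusive means above 50% but judged a plate artefact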;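 further: 50 nL library stock added to about 25 µL; numbers are from one replicate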
PrP UTR inh = inhibition of PrP 5' UTR reporter expression. cell-based PrP 5' UTR mRNA reporter, plate reader. inhibition, % (test concentration not listed). hit rate 0.35% among 340,000. AID 488862, 2010;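 active means every replicate at 50% or more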;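 further: 0 = median of the neutral control wells; tested in H4 reporter cells; numbers are from one replicate; inactives centre near -14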
Sa ugtP lethal = growth inhibition of ugtP-null S. aureus, primary screen, RN4220 ugtP deletion, OD600; 16 h; some inactives read as strong as hits; AID 1259309, 2017; growth inhibition, % (concentration not given with the values); hit rate 0.54% among 330,000;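 active means z-score under -3 and OD600 up to 0.15 on both plates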;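 further: plate controls were untreated wells for no effect and antibiotic for full effect; wells of about 80 µL received 100 nL stock; the first replicate is given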
Mtb hypoxia inh = PubChem AID 1159583 | M. tuberculosis hypoxia-regulated fluorescent reporter, fluorescence | fluorescence inhibition, % (concentration not given with the values) | hit rate 0.1% among 300,000;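 active means 35 to 45% if threefold the growth effect, above 45% if 1.5-fold the growth effect; inactive means the rest, general growth blockers included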;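 further: wells of about 50 µL received 100 nL stock; 0% = vehicle wells and 100% = reference inhibitor wells; whole bacteria with a GFP reporter of the hypoxia response; strong numbers were not always called active; many hits fall short of the cut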
Autofluor counter = counter-screen for toxin protease inhibitors: compound fluorescence; compound autofluorescence counterscreen, microsphere flow cytometry; hits give high values; fluorescence intensity (concentration not given with the values); hit rate 3.1% among 360,000; AID 624483;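 active means at least 3 SD above the mean of all compounds, about 16000 in these data; inconclusive means too few beads counted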;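 further: 100 nL of 1 mM stock went into each well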
Mtb hypoxia inh growth = further read-out of Mtb hypoxia inh, marked with its call; growth inhibition, %; measured here: M. tuberculosis growth (absorbance);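 0% = vehicle and 100% = reference antibiotic; read after six days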
The depositor's hits bear a star; ? = inconclusive; . = not tested or not shown.

SMILES | RN4220 kill | BJeLR lethal | PrP UTR inh | Sa ugtP lethal | Mtb hypoxia inh | Mtb hypoxia inh growth | Autofluor counter
Cc1ccc(C)c(NC(=O)c2cnn3ccccc23)c1 | 0.1 | 1 | -23 | 13 | 6 | 5 | 4957
C[C@H](NC(=O)CCn1nnc2ccccc2c1=O)C(=O)O | 0.1 | -4 | -20 | -5 | 9 | 6 | .
COc1cc2c(cc1OC)C1CC(=O)C(CC(C)C)CN1CC2 (configuration not stated) | 2.9 | 5 | 0 | 0 | 10 | 1 | 5472
O=C(CSc1nnc(-c2ccccc2)o1)n1c2c(c3ccccc31)CCCC2 | 8.9 | 2 | . | -1 | 6 | 1 | .
Cc1ccc2nc(CCc3nc4ccc(C)cc4[nH]3)[nH]c2c1 | -3.5 | -3 | -29 | -9 | 15 | 9 | 3327
O=S(=O)(c1ccc(Oc2ccc(F)c(Cl)c2)nc1)N1CCOCC1 | . | -2 | -4 | . | . | . | 5199
Cc1sc2nc(CN3CCC(C)CC3)nc(Cl)c2c1C | -0.6 | -6 | . | 2 | 5 | 13 | .
O=C(NN=Cc1oc(O)c2ccccc12)c1ccccc1 | 1.2 | . | . | 3 | 5 | -2 | .
CC(NC(C)c1ccccc1Cl)C(=O)Nc1cccc(S(=O)(=O)N2CCCCC2)c1 (configuration not stated) | 4.3 | . | . | -1 | 4 | 11 | ?
O=C(CS(=O)CC(=O)Nc1cccnc1)Nc1ccc(F)cc1 (configuration not stated) | -2.0 | -12 | -9 | 2 | -7 | 4 | 5786
Cc1nnc(NC(=O)CN2CCN(Cc3c(Cl)cccc3Cl)CC2)s1 | 4.9 | -3 | -22 | 7 | 5 | 10 | 3810
Cc1onc(-c2c(F)cccc2Cl)c1C(=O)N=C(N)N1CCCC1 | 1.0 | 3 | 5 | 0 | 6 | 15 | .
CCOc1ccc(NC(=O)COC(=O)CC2CC3CCC2C3)cc1 (configuration not stated) | -2.3 | . | -19 | 2 | 3 | 9 | ?
COc1cc(C=NNC(=O)c2ccc(CSc3nc4ccccc4[nH]3)cc2)cc(OC)c1OC | 26 | . | . | 11 | 19 | 6 | .
O=C1Nc2ccccc2Nc2ncccc21 | -13 | -9 | -12 | 1 | -1 | 4 | 3113
COc1cccc(/C=C2\N=C(c3c(-c4ccccc4)noc3C)OC2=O)c1OC | 3.4 | 2 | -44 | 4 | 17 | 2 | 4278
O=C(Cn1cnc2c(OCc3ccccc3)ncnc21)NCc1ccccn1 | 0.4 | . | 8 | 1 | -5 | -1 | 3409
CN(C=C1C(=O)CC(C)(C)CC1=O)CCN1CCNCC1 | 1.5 | -6 | -27 | 3 | . | . | 3633
NS(=O)(=O)c1ccc(CNC(=O)c2ccc(Cl)c([N+](=O)[O-])c2)cc1 | 2.8 | -1 | -26 | 7 | 0 | 15 | 4344
CN(C(=O)COC(=O)c1ccccc1SCC(=O)N1CCCC1)C1CCS(=O)(=O)C1 (configuration not stated) | 0.3 | 8 | -4 | 0 | 9 | -10 | 6919
COC(OC)C(C)NC(=O)NC(=O)c1ccccc1Cl (configuration not stated) | 6.0 | -4 | -6 | 8 | 2 | 2 | 5308
COc1ccc(C(=O)Nc2ccccc2C(N)=O)cc1 | 3.3 | . | -124 | 4 | 5 | 6 | 11311
O=C(O)c1ccc(NC(=O)c2cn(-c3ccccc3)nc2-c2ccc(Cl)cc2)cc1 | 34 | 3 | -27 | 6 | 0 | 7 | 4114
Cc1[nH]c(=O)[nH]c(=O)c1S(=O)(=O)N1CCCC(C(=O)NCc2ccccc2Cl)C1 (configuration not stated) | 6.3 | 3 | -19 | 9 | 12 | 7 | 7236
COc1ccc(CNC(=O)c2c(O)c3cccc4c3n(c2=O)CCC4)cc1 | -15 | -2 | -30 | -2 | 8 | 11 | 2819
Cc1c(NC(=O)C(C)N2C(=O)C3C4C=CC(C4)C3C2=O)c(=O)n(-c2ccccc2)n1C (configuration not stated) | 2.0 | 2 | -33 | 3 | 1 | 6 | 6110
CC1CCC(NC(=O)CCCCn2c(=O)[nH]c3ccsc3c2=O)CC1 (configuration not stated) | 5.3 | -9 | -12 | 6 | 2 | -2 | 4610
COc1cc(C(=O)NNC(=O)COc2ccc(C)cc2)ccc1OCC(=O)N1CCOCC1 | -0.4 | . | 5 | -4 | -8 | -6 | 5421
COC(=O)c1c(C(=O)OC)c(-c2cccc(Cl)c2)n2c1CS(=O)C2 (configuration not stated) | 5.6 | -10 | -27 | 7 | 11 | 10 | 4639
COc1ccc(C(C(=O)Nc2ccc(C(C)C)cc2)N(C)C(=O)CNC(C)=O)cc1 (configuration not stated) | 2.3 | 2 | -27 | 15 | 20 | 13 | 4454
Cc1[nH]c2ccccc2c1C=NNc1ccc([N+](=O)[O-])cc1 | -17 | . | . | -15 | 20 | -9 | .
COc1ccc(-c2cn(Cc3ccc4c(c3)C(=O)c3ccccc3C4=O)nn2)cc1 | 4.5 | 2 | -12 | -11 | 9 | 5 | 3923
O=C1COc2ccc(NC(=O)c3ccccc3C(=O)O)cc2N1 | 4.1 | -3 | -15 | 15 | 5 | -8 | 2856
CC(CCc1ccco1)NC(=O)Cn1ncc2c1-c1ccccc1OC2 (configuration not stated) | 3.3 | 4 | -8 | 1 | 6 | 7 | 4353
CC(C)NC(=O)CC(=O)N/N=C/c1ccc(F)cc1 | . | -4 | -24 | . | . | . | 9135
C/C(N)=N\S(=O)(=O)c1ccc(Cl)cc1 | 0.7 | 2 | 8 | 3 | 1 | 5 | 9793
O=C(N/N=C/c1ccncc1)c1cc(C2CC2)nc2ccccc12 | . | 6 | -18 | . | . | . | 3456
CCOc1ccc(CCNC(=O)c2ccc(CNS(=O)(=O)c3ccccc3)cc2)cc1OCC | 4.1 | -1 | -3 | 3 | 14 | -3 | 2495
O=C1CSC(c2ccc(Cl)cc2)N1Nc1nc(N2CCOCC2)nc(N2CCOCC2)n1 (configuration not stated) | 1.9 | -4 | -30 | 2 | -2 | 6 | 2107
C#CCOCCOCCOCCNc1nc(N2CCN(C(=O)[C@H](CCCN=C(N)N)n3cc(C(N)[C@@H](C)CC)nn3)CC2)nc(N2CCN(C(=O)[C@H](CCC(=O)O)n3cc([C@@H](N)CO)nn3)CC2)n1 (some centres not stated) | -1.1 | . | -13 | 4 | 1 | 2 | 2945
C=C(C)COc1ccc2c(C)c(CCC(=O)N3C[C@H]4C[C@@H](C3)c3cccc(=O)n3C4)c(=O)oc2c1 | 8.6 | 10 | -4 | 0 | . | . | 3941
CC(C)c1ccc(NS(=O)(=O)c2ccc(Cl)nc2)cc1 | 8.2 | -1 | -28 | -9 | 9 | 12 | 2205
Clc1ccc(-n2nnnc2SCc2c(-c3ccccc3)nc3sccn23)cc1 | . | 12 | -9 | . | . | . | 7076
N=C1/C(=C\c2coc3ccccc3c2=O)C(=O)N=C2SC=CN12 | 13 | -8 | -14 | -7 | 1 | 7 | 4803
COc1cc2c(cc1OC)CN(C(=O)COc1ccc(C#N)cc1)CC2 | 10.0 | 1 | -9 | 11 | . | . | 3453
COc1ccc(S(=O)(=O)N2CCOCC2)cc1NC(=O)CCc1cc(OC)c(OC)c(OC)c1 | 0.6 | . | -13 | 5 | 8 | 3 | .
COC(=O)c1c(NC(=O)CN2C(=O)NC3(CCc4ccccc4C3)C2=O)sc2c1CCCCC2 (configuration not stated) | 5.8 | -2 | -13 | -10 | -5 | -8 | 2354
CCOC(=O)CSc1nc(C)cc(C)n1 | 0.1 | 0 | -23 | 7 | . | . | 2533
CCOC(=O)c1ccc(NC(=O)c2nc[nH]c2C(=O)NCCCNC(=O)c2[nH]cnc2C(=O)Nc2ccc(C(=O)OCC)cc2)cc1 | 2.6 | . | -6 | -1 | -2 | 3 | 4043
Cn1c(CC2C(=O)Nc3ccc(Br)cc32)nc2ccccc2c1=O (configuration not stated) | 2.4 | 5 | -1 | -11 | 3 | 0 | 11252
COc1cc(-c2noc(CCC(=O)NC3CCCC3)n2)cc(OC)c1OC | -0.7 | -5 | -9 | 11 | -10 | -13 | 3639
CC(C)N1C(=O)C2C(c3ccccc3O)NC(C)(C(=O)O)C2C1=O (configuration not stated) | 0.0 | -4 | 3 | 4 | . | . | 4217
COc1cccc(OC)c1C(=O)Nc1ccccc1C(=O)N1CCCCCC1 | 0.6 | -19 | -17 | 1 | 10 | 14 | 4960
Cc1ccc(C(=O)Nc2ccc(N3CCN(C)CC3)cc2)cc1C | 3.3 | -13 | 0 | 14 | 7 | -3 | 2740
O=C(c1ccco1)N1CCN(Cc2ccc(F)cc2)CC1 | . | -3 | -44 | . | . | . | 4011
CCCC(C)NC(=O)Cc1ccc(Br)cc1 (configuration not stated) | 2.0 | -5 | -19 | 4 | 18 | 12 | 2628
O=C(Cc1ccccc1)N1CCCC1c1ccccc1 (configuration not stated) | 2.1 | -5 | -18 | 1 | 6 | 9 | 21410*
Cc1noc(C)c1NC(=O)Nc1ccc2c(c1)C(=O)N(C(C)CO)CC(C)C(CN(C)C(=O)Nc1c(C)noc1C)O2 (configuration not stated) | 2.0 | . | . | 4 | 10 | 13 | .
COc1ccc(C(=O)C2CCCN(Cc3c[nH]c4ccccc34)C2)c(OC)c1 (configuration not stated) | -2.9 | 3 | 4 | -9 | -1 | 4 | 2107
COc1ccc(-c2[nH]c(-c3ccccc3)nc2SCC(=O)Nc2nccs2)cc1 | -6.2 | . | -4 | -1 | 6 | 3 | 5396
Next structures
SMILES | RN4220 kill | BJeLR lethal | PrP UTR inh | Sa ugtP lethal | Mtb hypoxia inh | Mtb hypoxia inh growth | Autofluor counter
COc1ccc(C(C)(C)C)cc1S(=O)(=O)n1ccnc1C | 9.8 | -6 | -19 | 0 | 4 | 11 | 4879
COc1cccc(CNC(C)(C)CO)c1OCc1ccc(Cl)cc1 | -2.3 | 1 | -13 | -1 | 12 | 1 | 2826
CCN(CC(=O)Nc1ccc(C)c(S(=O)(=O)N2CCOCC2)c1)Cc1ccccc1 | 4.9 | -5 | -3 | 1 | -3 | -3 | ?
O=C(NCCCN1CCCC1=O)c1cc(S(=O)(=O)N2CCOCC2)ccc1Cl | -1.4 | 5 | 2 | 2 | 6 | 11 | 5236
O=C(OC1CCOC1=O)C1CCN(S(=O)(=O)c2ccccc2)CC1 (configuration not stated) | 3.3 | . | -12 | 3 | 5 | 2 | 3942
CCCN=C1N(C)C[C@@H]2[C@@H]3C(=O)N(Cc4ccccc4)C(=O)[C@@H]3[C@](Cc3ccccc3)(C(=O)OC)N12 | 0.5 | . | -18 | 6 | 0 | 2 | 3459
COc1ccc(/C=N/Nc2nnc(-c3ncc[nH]3)c3ccccc23)cc1 | . | -9 | -47 | . | . | . | 21400*
Cc1cccc(C(=O)NC2=NCCS2)c1 | 3.2 | -3 | -39 | 0 | 6 | 10 | 4810
COc1ccccc1N(CC(=O)Nc1cccnc1)S(=O)(=O)c1ccccc1 | -0.2 | -3 | -1 | -3 | 1 | -2 | 6767
O/N=C1/CCc2nonc2/C1=N/O | . | 7 | -4 | . | . | . | 2385
CNC(=S)Nc1ccc2[nH]c(=O)[nH]c2c1 | 3.6 | 10 | -15 | 3 | 2 | -6 | 4668
CCOC(=O)c1cc(=O)n2nc(-c3ccc(C)cc3)nc2s1 | -2.3 | 1 | -5 | -4 | -3 | -5 | 9434
